Screens as filed in PubChem.
ClpP mod: qHTS Assay for Activators of ClpP | ATP-dependent Clp protease proteolytic subunit (Bacillus subtilis (strain 168)), P80244 | purified B. subtilis ClpP, FRET peptide cleavage, 20 min | Potency, µM (series often up to 57.5 µM), without a hit: top-dose activity change, negative = active | 340,000 compounds, 1.9% hits | AID 651965, 2013; active = well fitted falling curve with a large enough effect; inconclusive = small, poorly fitted or top-dose-only effect; inactive = no such curve, though single readings can be large or run the other way; also: potency is read from the fitted curve at half-maximal effect; the source files actives as falling curves though it sought activators and does not explain the sign; nearly all actives have a fitted effect of over 65% in size; many hits overshoot -100%
Target sequence (P80244 whole entry, looked up): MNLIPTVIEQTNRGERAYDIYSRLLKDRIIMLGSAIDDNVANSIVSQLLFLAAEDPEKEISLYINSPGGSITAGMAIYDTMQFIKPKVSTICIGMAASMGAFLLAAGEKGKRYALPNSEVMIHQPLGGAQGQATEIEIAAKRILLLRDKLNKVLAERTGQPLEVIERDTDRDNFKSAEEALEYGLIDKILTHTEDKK
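ClpP 10 microg/mL final, pH 8 Tris/KCl buffer with BSA, glycerol, Tween-20; compound pinned in; FRET-FV substrate; RT 20 min; Ex320/Em430; ΔFRET vs ADEP 5.8 microM, DMSO, no enzyme.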
Sfp PPTase inh: blocks B. subtilis Sfp PPTase activity | Q9F4F7 | Biochemical Sfp PPTase activity, qHTS | Potency, µM, for the others: max response, negative = inhibition, usual class: inhibitors | 310,000 compounds, 3.5% hits | AID 1490; active = well fitted inhibition curve with a large enough effect; inconclusive = small, poorly fitted or top-dose-only effect, or another doubt; inactive = no such curve, though single readings can be large or run the other way;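 also: the enzyme is Sfp with the accession as filed and its product quenches rhodamine fluorescence; potency is read from the fitted curve at half-maximal effect; 0% = enzyme reaction without inhibitor and -100% = no enzyme wells; top concentration of the series not given in the record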
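Sfp 15 nM + cpd, 15 min RT; start w/ rhodamine-CoA 5 uM, BHQ-2-YbbR 12.5 uM (final); 50 mM Hepes pH 7.6, 10 mM MgCl2, 0.01% NP-40, 0.01% BSA; read 525/598 nm at 0 and 30 min.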
gsp antagonist: antagonists of gsp mutant (McCune-Albright syndrome); Potency, µM (series often up to 76.9 µM), without a hit: at the highest dose activity change, negative = inhibition, actives largely listed as inhibitors; 340,000 compounds, 0.4% hits; gsp-mutant cells, cAMP HTRF, 30 min; control for the full effect not named in the record; active = falling curve of any shape with a large fitted effect; inconclusive = falling curve, mostly with a smaller effect; inactive = flat or rising curve; cell line not stated here;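 also: intracellular cAMP measured with PDE inhibitor Ro 20-1724 present during compound exposure; potency is read from the fitted curve at half-maximal effect; % is scaled to controls: 0 for no effect and ±100 for the full control effect; nearly all actives have a fitted effect of over 65% in size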
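HTRF cAMP measurement after 30 min RT detection following 30 min, 37C compound treatment alongside […] (added as 300 uM solution) in G418-selected cells seeded at 2000/well and grown 16–24 h.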
Menin MLL FP FL: menin-MLL binding inhibition, fluorescein peptide | AID 1766 | FP activity change, % at 61.4 µM | 290,000 tested, under 10 active | Fluorescence polarization, fluorescein-MLL peptide displacement from menin; inconclusive = falling polarisation curve, or a change in total fluorescence; inactive = total fluorescence flat and polarisation flat or rising; no compound was filed as active; the % refers to the polarisation; negative = inhibition;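 also: % of control where 0% means no effect; inhibitors lower the polarisation; unlabelled MLL peptide was the positive control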
gsp agonist: agonists of gsp mutant (McCune-Albright syndrome) | 340,000 compounds, 0.13% hits | Potency, µM (top dose mostly 76.9 µM), for the others: at the highest dose activation (cAMP increase), hits mostly activators | gsp mutant cells, cAMP HTRF, 30 min; control for the full effect not named in the record; active = well fitted activation curve with a large enough effect; inconclusive = small, poorly fitted or top-dose-only effect, or another doubt; inactive = no such curve, though single readings can be large or run the other way; cell line not stated here;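 also: phosphodiesterase inhibitor Ro 20-1724 added with compounds to block cAMP breakdown; potency is read from the fitted curve at half-maximal effect; nearly all actives have a fitted effect of over 60% in size; about a fifth of the inactives were tested at one dose only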
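Cells stably selected in G418 were plated at 2000/well, grown 16-24 hr, then given compounds in DMSO with the PDE inhibitor […] (300 uM solution added) for 30 min at 37C; cAMP was read by HTRF.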
D2 PAM: human D2 receptor positive allosteric modulation; P14416; DiscoveRx D2 beta-arrestin cells, luminescence, 90 min; 100% = 57 uM dopamine signal; potentiation, % (test concentration not listed); 360,000 compounds, 0.23% hits; AID 624464; active = potentiation of 50% or more; inconclusive = 30% to 50%; inactive = 30% or less;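 also: compound concentration not given in the record; tested on top of an EC20 dose of dopamine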
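PathHunter D2 cells, attached overnight at 37 deg C, received compound in DMSO plus dopamine at EC20 (50 nM final) for 90 min at 37 deg C. Beta-arrestin recruitment was read as luminescence after 1 h with detection reagent at ambient temperature.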
TRPV1 PAM: human TRPV1 potentiation; AID 540277; 320,000 compounds, 0.02% hits; Q8NER1; TRPV1-expressing cells, Fluo-8 calcium influx, capsaicin EC20 potentiation; host cell line not named in the record; control for the full effect not named in the record; potentiation, % at 8.33 µM; active means potentiation above 80%; inconclusive means 30% to 80%; inactive means below 30%; also: 0% is about no effect
Target sequence (Q8NER1 whole entry, looked up): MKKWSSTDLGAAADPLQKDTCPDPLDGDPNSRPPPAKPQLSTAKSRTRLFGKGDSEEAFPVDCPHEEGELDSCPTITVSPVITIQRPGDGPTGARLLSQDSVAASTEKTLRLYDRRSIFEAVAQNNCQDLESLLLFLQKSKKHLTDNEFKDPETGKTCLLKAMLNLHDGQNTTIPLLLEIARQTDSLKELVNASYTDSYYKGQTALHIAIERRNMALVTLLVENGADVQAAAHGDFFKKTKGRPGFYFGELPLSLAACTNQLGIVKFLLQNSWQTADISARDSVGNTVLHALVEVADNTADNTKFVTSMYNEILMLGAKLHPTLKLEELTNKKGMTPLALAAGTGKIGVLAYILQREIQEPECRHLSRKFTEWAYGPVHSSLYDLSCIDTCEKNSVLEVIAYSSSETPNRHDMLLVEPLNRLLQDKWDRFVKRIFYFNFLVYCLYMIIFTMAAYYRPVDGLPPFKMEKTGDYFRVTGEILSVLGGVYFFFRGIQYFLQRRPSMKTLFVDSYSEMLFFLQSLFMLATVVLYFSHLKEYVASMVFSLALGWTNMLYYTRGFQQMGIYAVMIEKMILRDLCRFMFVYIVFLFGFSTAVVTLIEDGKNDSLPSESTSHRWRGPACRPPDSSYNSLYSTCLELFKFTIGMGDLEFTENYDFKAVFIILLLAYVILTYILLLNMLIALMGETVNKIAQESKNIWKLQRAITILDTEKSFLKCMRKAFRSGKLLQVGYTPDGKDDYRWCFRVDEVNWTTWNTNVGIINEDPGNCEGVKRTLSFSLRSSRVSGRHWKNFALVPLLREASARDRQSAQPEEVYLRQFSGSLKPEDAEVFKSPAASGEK
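Cells expressing TRPV1 were dye-loaded with Fluo-8 and read kinetically: 10 s baseline, 3 min after compound (agonist portion), then 2 min after EC20 capsaicin (allosteric enhancer portion). Calcium-bound dye fluorescence at 480/520 nm.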
An asterisk follows results filed as active; ? = inconclusive; . = not tested or not shown; & = joins results of further samples; ! = repeats disagree; [ ] = dose if it differs, or a comment.

Keys: A = ClpP mod; B = Sfp PPTase inh; C = gsp antagonist; D = Menin MLL FP FL; E = gsp agonist; F = D2 PAM; G = TRPV1 PAM
> CCCCNC(=O)O[C@@H]1C[C@@H]2CCN3C(=O)CCC[C@H]([C@H]1CC)[C@H]23
  A: 1.9%&1.4%	B: 10%	C: 2%	D: 1.4	E: 22%	F: 0	G: -8
> O=C(COC(=O)c1cc([N+](=O)[O-])ccc1NCc1ccccc1)NC1CCCCC1
  A: -0.5%	B: -11%	C: 3%	D: 1.4	E: -30%[inhibitor]	F: -4	G: 2
> CCCCC1=CC2=C(c3ccco3)C(=O)C(C)(OC(=O)c3ccc(OC)cc3)C(=O)C2=CN1Cc1ccccc1 (stereo unspecified)
  A: 0.6%	B: 45µM*!	C: 2%	D: ?	E: .	F: 10	G: 25
> Cc1ccc(N2C(=O)CSC2c2cccnc2)c(Cl)c1 (stereo unspecified)
  A: .	B: 10%	C: 4%	D: 4.7	E: 4%	F: 0	G: 6
> Cc1ccc(NC(=O)NC2CCCN2S(=O)(=O)c2ccc(Cl)cc2)cc1 (stereo unspecified)
  A: -1.5%	B: 6%	C: -15%	D: 1.6	E: -12%	F: 8	G: 0
> O=S(=O)(c1ccc(F)cc1)N1CCN(c2ncnc3c2cnn3-c2ccccc2)CC1
  A: 1.2%	B: 8%	C: 2%	D: 3.2	E: -6%	F: 2	G: -3
> COc1ccc(CCNC(=O)c2nnn(CC(=O)Nc3c(C)cc(C)cc3C)c2N)cc1OC
  A: 1.3%	B: 4%	C: 4%	D: 0.5	E: ?	F: -6	G: -20
> c1ccc(-c2cc(-c3nnco3)c3ccccc3n2)nc1
  A: .	B: 10%	C: -1%	D: -0.2	E: 13%[15.4 µM]	F: -5	G: -2
> CCC(CC)C(=O)N=C1SC2CS(=O)(=O)CC2N1CCc1ccc(OC)cc1 (stereo unspecified)
  A: 1.2%	B: -6%	C: -15%	D: 2.9	E: 6%	F: 6	G: 4
> COc1ccc(CCN2C(=O)c3[nH]nc(-c4ccccc4O)c3C2c2cccc(Cl)c2)cc1 (stereo unspecified)
  A: -3.8%	B: -11%	C: 0%	D: 2.7	E: ?	F: 91*	G: ?
> CC(=O)Nc1ccc(C(=O)CN2C(=O)CSC2=O)cc1
  A: 1.9%	B: 10%	C: 1%	D: 1.0	E: 9%[15.4 µM]	F: -4	G: 5
> CC(=O)N(CCC(Cc1ccccc1)c1ccc2c(c1)OCO2)Cc1ccccc1F (stereo unspecified)
  A: -1.1%	B: 71µM*	C: -16%	D: -6.2	E: -1%	F: -4	G: -17
> Cc1noc(C)c1COc1ccc(C(=O)OCC(=O)NC23CC4CC(CC(C4)C2)C3)cc1
  A: -0.6%	B: 18%	C: -11%	D: -1.1	E: -32%	F: -4	G: -12
> Cc1ccc(N(C(=O)CNC(=O)c2ccco2)C(C(=O)NCC2CCCO2)c2ccccc2)c(C)c1 (stereo unspecified)
  A: 1.8%	B: 9%	C: -3%	D: -3.9	E: -3%[15.4 µM]	F: -2	G: -16
> CCOC(=O)C1(C(F)(F)F)N=C(c2cccnc2)OC(N2CCOCC2)=N1 (stereo unspecified)
  A: 2.2%	B: -6%	C: -5%	D: -1.4	E: -16%	F: -12	G: -9
> COC(=O)C1=CO[C@@H](O[C@@H]2O[C@H](CO)[C@@H](O)[C@H](O)[C@H]2O)C2C1C=C[C@@]2(O)CO (stereo partly specified)
  A: -1.4%	B: .	C: 11%	D: .	E: .	F: -7	G: .
> COc1ccc(S(=O)(=O)N2CCOCC2)cc1NC(=O)COC(=O)CCOc1ccc(C)cc1
  A: -3.3%	B: .	C: -2%	D: .	E: 11%	F: -4	G: 19
> CC(C)OCCCNC(=O)c1cccs1
  A: 0.0%	B: 12%	C: 2%	D: 0.4	E: -14%	F: -1	G: 7
> COc1cc(C(=O)Nc2ccc(S(=O)(=O)N3CCc4ccccc43)cc2)cc(OC)c1OC
  A: -10%	B: 18%	C: 0%	D: 7.4	E: 0%	F: 21	G: 27
> CC(Oc1ccccc1F)C(=O)NNC(=O)Cc1ccc(S(=O)(=O)N2CCOCC2)s1 (stereo unspecified)
  A: -0.7%	B: .	C: -5%	D: .	E: -48%[inhibitor]	F: -4	G: .
> Cc1nc2c(c(=O)c3ccccc3n2C)c(=O)n1C1CCCCCC1
  A: -1.5%	B: 0%	C: 7%	D: 2.6	E: 20%[15.4 µM]	F: 7	G: -19
> CCOC(=O)C1CCCN(C(=O)c2ccc(C)cc2O)C1 (stereo unspecified)
  A: -2.4%	B: 8%	C: 0%	D: 3.3	E: 4%	F: -9	G: ?
> Oc1ccc(C[C@@H]2CNC(=S)N2CCCCC2CCCCC2)cc1
  A: -3.3%	B: 10%	C: -9%	D: 0.3	E: -51%[inhibitor]	F: -6	G: 15
> Cc1n[nH]c(=S)c2nn(-c3cccc(Cl)c3)c(C)c12
  A: .	B: 0%	C: .	D: ?	E: .	F: .	G: ?
> Cc1cc(C)cc(Nc2ncnc3nc[nH]c23)c1
  A: .	B: 7%	C: -9%	D: 0.1	E: 6%	F: 9	G: -6
> O=C(NCCN1CCN(c2ccccc2Cl)CC1)Nc1ccccc1
  A: 0.2%	B: 1%	C: 16%	D: -0.3	E: 12%[15.4 µM]	F: -9	G: -1
> CCOc1ccc(C(=O)Nc2cc(C)on2)cc1OCC
  A: -1.8%	B: 19%	C: 2%	D: 1.6	E: 0%	F: -35	G: -1
> COc1ccc(Br)c(C(=O)Nc2nc3ccccc3[nH]2)c1
  A: .	B: 18%	C: 4%	D: -22	E: ?	F: -4	G: 3
> CN(C)N1C(=O)C2C3C=CC(O3)C2C1=O (stereo unspecified)
  A: .	B: .	C: 11%	D: .	E: ?	F: -1	G: .
> COC(=O)CCCC(=O)NC1CCCN(C2Cc3ccccc3C2)C1 (stereo unspecified)
  A: -0.7%	B: -5%	C: 11%	D: -2.2	E: 0%	F: -14	G: -4
> COc1ccc(C(=O)/C=C/Nc2ccc([N+](=O)[O-])cc2C)cc1OC
  A: 1.6%	B: -29%	C: 0%	D: ?	E: -27%	F: -11	G: 12
> O=C(OCN1C(=O)c2ccccc2C1=O)c1cccs1
  A: 1.4%	B: 11%	C: 0%	D: 2.7	E: 1%	F: 25	G: -15
> COC(=O)CCC(=O)OC1(C)C(=O)C=C2C=C(C3CC3)N(C3CCCC3)C=C2C1=O (stereo unspecified)
  A: -5.0%	B: 0%&8%	C: -2%	D: -4.8[11.7 µM]	E: -3%	F: 3	G: 8
> N#Cc1c(C(F)(F)F)cc(C2CC2)[nH]c1=O
  A: 5.2%	B: 16%	C: -7%	D: -1.6	E: 11%	F: -6	G: 4
> CCOC(=O)c1ccc(NC(=O)CSc2nc(=O)n3cccc(C)c3n2)cc1
  A: -9.5%	B: .	C: -7%	D: .	E: 12%[15.4 µM]	F: ?	G: 9
> COC(=O)[C@H](CCSC)NC(=O)NCc1ccccn1
  A: 0.9%	B: 10%	C: 6%	D: 1.1	E: 12%	F: 4	G: -2
> CCOC(=O)N1CCN(C(=O)CCc2ccc(S(=O)(=O)NC(C)C)cc2)CC1
  A: -0.4%	B: -3%	C: 0%	D: -2.3	E: -45%[inhibitor]	F: 2	G: -5
> Cc1ccc(NC(=O)/C(=C/c2cccc(Br)c2)NC(=O)c2ccco2)cc1
  A: .	B: 18%	C: 0%	D: 3.4	E: 9%[15.4 µM]	F: -18	G: -4
> Cn1cccc1C1(C(F)(F)F)NCCNC1=O (stereo unspecified)
  A: -8.8%	B: 16%	C: 7%	D: 0.6	E: 4%	F: 0	G: 5
> O=C(O)c1ccccc1NCc1ccncc1
  A: 14µM*	B: 2%	C: 8%	D: -1.5	E: -2%	F: -5	G: -4
> O=C(N/C(=C/c1ccc(Br)cc1)C(=O)N1CCCCC1)c1ccccc1F
  A: -1.6%	B: -2%	C: -1%	D: .	E: -8%	F: 12	G: 27
> COc1cccc(CNC(=O)CCCn2nc(C)c3c(C)n(-c4ccc(C)cc4)nc3c2=O)c1OC
  A: -2.5%&0.9%	B: -1%	C: -5%	D: 4.3	E: -40%	F: -8	G: -4
> Cc1ccccc1S(=O)(=O)/N=C(/Nc1nc2ccccc2s1)c1ccccc1
  A: 20%	B: .	C: -10%	D: .	E: -17%	F: -1	G: .
> COc1ccccc1C1/C(=C(/O)c2cnn(-c3ccccc3)c2C)C(=O)C(=O)N1CCN(C)C (stereo unspecified)
  A: 1.9%	B: .	C: 11%	D: .	E: 2%	F: -5	G: .
> Cc1ccc2oc(-c3cccc(NC(=O)/C=C/c4cccc([N+](=O)[O-])c4)c3C)nc2c1
  A: 3.0%	B: 15%	C: -6%	D: 4.4	E: -18%	F: -26	G: 7
> CC(C)N1CCC(=NNc2ccc([N+](=O)[O-])cc2S(=O)(=O)N2CCOCC2)CC1
  A: -2.1%	B: -10%	C: 9%	D: -3.4	E: 10%[15.4 µM]	F: 0	G: -3
> CC(=O)c1cccc(NC(=O)N2CCCC2C(=O)NCc2ccc(F)cc2)c1 (stereo unspecified)
  A: 0.2%	B: -10%	C: 2%	D: 3.2	E: 23%	F: -26	G: 3
> CCN(CCN(C)C)C(=O)c1ccc2c(c1NCCO)C(=O)c1ccccc1C2=O
  A: .	B: ?	C: ?	D: -5.8	E: -25%[15.4 µM]	F: -1	G: -15
> O=[N+]([O-])c1cc(F)cc(F)c1Nc1cc(F)cc(F)c1
  A: .	B: .	C: -9%	D: .	E: -4%	F: 3	G: .

At a glance, three of the compounds above.
Keys: A = ClpP mod; B = Sfp PPTase inh; C = gsp antagonist; D = Menin MLL FP FL; E = gsp agonist; F = D2 PAM; G = TRPV1 PAM
> O=C(N/C(=C/c1ccc(Br)cc1)C(=O)N1CCCCC1)c1ccccc1F
  A: -1.6%	B: -2%	C: -1%	D: .	E: -8%	F: 12	G: 27
> COc1cccc(CNC(=O)CCCn2nc(C)c3c(C)n(-c4ccc(C)cc4)nc3c2=O)c1OC
  A: -2.5%&0.9%	B: -1%	C: -5%	D: 4.3	E: -40%	F: -8	G: -4
> Cc1ccccc1S(=O)(=O)/N=C(/Nc1nc2ccccc2s1)c1ccccc1
  A: 20%	B: .	C: -10%	D: .	E: -17%	F: -1	G: .
